Screening data as filed in PubChem.
miR-21 FLuc: raises the signal of a miR-21 reporter; HeLa miR-21 FLuc reporter, luciferase, 48 h; Potency, µM (top dose mostly 38.3 µM), for the others: top-dose reporter change, positive = more light; 340,000 tested, under 10 active; active = well fitted rising curve with a large enough effect; inconclusive = small, poorly fitted or top-dose-only effect; inactive = no such curve, though single readings can be large or run the other way;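 also: % of control where 0% means no effect; miR-21 action dims this reporter so a rising signal means less miR-21 action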
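Compounds were titrated across several concentrations (up to approximately 40 uM) and incubated 48 hours with HeLa miR-21-FLuc reporter cells (miR-21 target sequence downstream of FLuc, endogenous miR-21). Readout was firefly luciferase luminescence after lytic detection reagent.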
Active calls of the source: *; ? = inconclusive. Only part of the results is shown; count on the stated rates, not on these rows.

SMILES	miR-21 FLuc
CCOC(=O)Cn1c(=O)n(-c2ccccc2OC)c2nc(-c3ccccc3)nc(C(N)=O)c21	4.0%
CCC(C)NC(=O)c1nn(-c2ccc(C)cc2)c(=O)n(C)c1=O (stereo not given)	2.7%
O=C(NC1CCCC1)c1ccc(CSc2nc3ccncc3n2Cc2ccccc2F)cc1	-29.2%
CC1CN(C(=O)N2CCC(C(=O)NCc3ccccc3F)CC2)c2cc(Cl)ccc2O1 (stereo not given)	?
Cc1cn2c(=O)cc(COc3ccc(NC(=O)COc4ccccc4)cc3)nc2s1	-0.3%
COc1ccccc1NC(=O)Cn1c(=O)n(-c2cccc(C)c2)c(=O)c2c1c1cc(C)ccc1n2C	0.1%
Cc1nc2cccnc2n1C1CCN(S(=O)(=O)c2ccc(C(C)C)cc2)CC1	-0.2%
CCC(Oc1ccccc1)C(=O)Nc1cc(-c2ccccc2OC)nn1-c1ccccc1 (stereo not given)	-3.6%
Cc1nn(C)c2c1c(-c1ccccc1)cc(=O)n2Cc1ccc(F)cc1	-14.9%
Cc1ccc(-n2c(C)cc(/C=C(\C#N)C(=O)Nc3ccc(C)c(C)c3)c2C)cc1	4.3%
CC(=O)N1c2c(cc(Br)cc2S(=O)(=O)N2CCN(c3cc(C)ccc3C)CC2)CC1C (stereo not given)	2.9%
CCOc1ccc(OCC)c(NC(=O)c2cc(S(=O)(=O)N3CCc4ccccc43)cn2C)c1	0.2%
Cc1nn(-c2cccc(Cl)c2)c2nc(-c3cccnc3)cc(C(F)(F)F)c12	3.0%
COc1cccc(CNC(=O)CCc2c(C)nc3c4c(C)cc(C)nc4nn3c2C)c1	4.3%
CCOC(=O)C1CCN(C(=O)Cn2ncc3c4ccccc4n(Cc4ccccc4)c3c2=O)CC1	15.7%
Cc1cc(O)c(C(c2ccc(Cl)cc2)N2CCN(c3ccccc3)CC2)c(=O)n1Cc1ccco1 (stereo not given)	-0.5%
CCCCN(CC)C(=O)c1nn(-c2ccc(OC)cc2)c(=O)c2c1c1ccccc1n2C	1.3%
COc1ccc(/C=C/C(=O)Nc2sc3c(c2C(N)=O)CCC(C)C3)cc1OC (stereo not given)	-1.9%
CC(=O)Nc1ccc(S(=O)(=O)N2CCN(c3ccc(C)c(C)c3)CC2)cc1	-4.6%
CC1=C(C(=O)Nc2ccc(C)cc2C)C(c2ccc(O)cc2)n2nnnc2N1 (stereo not given)	?
Cc1ccc(C)c(OCCOCCn2c(-c3ccc(Br)cc3)nc3ccccc3c2=O)c1C	-5.1%
COc1cccc(N2CC(NC(=O)c3ccco3)CC2=O)c1 (stereo not given)	-1.9%
Cc1ccc(-n2cc(-c3ccccc3)nc2S(=O)(=O)CC(=O)Nc2ccc(F)cc2)cc1	-1.1%
N#Cc1cc2c(=O)n3ccccc3nc2n(-c2nnc(SCc3ccccc3Cl)s2)c1=O	3.2%
CCc1ccc(OCC(=O)Nc2cc3oc4ccccc4c3cc2OC)c(Br)c1	0.5%
Cn1cc(S(=O)(=O)c2cccc(Cl)c2)c(=O)c2cc(F)c(N3CCCCC3)cc21	-9.1%
O=S(=O)(Nc1ccc(F)c(Cl)c1)c1ccc(Br)s1	6.2%
Cc1cc(C)c(NC(=O)Cc2ccc(-n3c(C)nc4cccnc43)cc2)c(C)c1	28.8%
O=C(Nc1cccc(F)c1)C1CCN(S(=O)(=O)c2cccc3nsnc23)CC1	4.8%
CCc1ccc(CNC(=O)CCc2c(C)nn(-c3ccc(N4CCCCC4)nn3)c2C)cc1	20.4%
CCS(=O)(=O)c1ncc(Cl)c(C(=O)N(Cc2ccccc2)c2ccc(OC)cc2)n1	?
Cc1cc(=O)oc2c3c(ccc12)OCN(Cc1ccccc1Cl)C3	-9.5%
Cc1cccc(NC(=O)c2nnn(CC(=O)Nc3ccc(C(C)C)cc3)c2N)c1C	-7.8%
Cc1ccc2nc(N(Cc3cccnc3)C(=O)CCS(=O)(=O)c3ccccc3)sc2c1	5.1%
COc1cc(-c2noc(CN3CCN(c4cccc(Cl)c4)CC3)n2)cc(OC)c1OC	-5.2%
CCCOc1ccc(CN(C(=O)c2cc(=O)c3ccc(C)cc3o2)C2CCS(=O)(=O)C2)cc1 (stereo not given)	4.1%
Cc1cccc2c(=O)cc(CSc3ccccc3NC(=O)c3cccc(Br)c3)[nH]c12	3.6%
CC(C)CC(=O)NCC(c1ccc2c(c1)OCO2)N1CCN(c2ccccc2F)CC1 (stereo not given)	0.8%
COc1ccc2c(c1)CC(C(=O)NCCN1CCN(c3ccccc3F)CC1)CO2 (stereo not given)	-0.2%
CCc1ccc(C(=O)Nc2cccc(-c3nc4cc(C(C)C)ccc4o3)c2)cc1	-9.5%
COC(=O)c1ccccc1NC(=O)Cn1c(=O)n(CCCC(=O)NCc2ccccc2OC)c(=O)c2ccccc21	3.5%
CC(C)c1ccc(NC(=O)C2CCN(c3nc(-c4ccc(C(C)C)cc4)no3)CC2)cc1	-6.9%
Cc1nn(C)c2c1c(-c1ccccc1)cc(=O)n2Cc1ccc(Br)cc1F	-8.4%
COC(=O)c1cc2sc(C)cc2n1Cc1nc(-c2ccc(C)cc2)oc1C	0.5%
O=C(CCCCn1c(=O)c2ccccc2n(CC(=O)Nc2ccc(F)cc2F)c1=O)NCc1ccccc1Cl	-3.4%
CCN(CC)S(=O)(=O)c1ccc2c(c1)N(CC(=O)Nc1ccc(F)cc1F)C(=O)C1CCCN21 (stereo not given)	0.2%
Cc1ccc2onc(CNC(=O)NCc3ccccc3)c2c1	-23.2%
Cc1nnc(N2CCCC(C(=O)Nc3ccccc3C(F)(F)F)C2)c2nn(-c3ccccc3)c(C)c12 (stereo not given)	12.3%
O=C(CN1N=C(c2ccccc2)CCC1=O)NCc1ccc(F)cc1Cl	-11.0%
COc1ccc(N2CCN(CCCNC(=O)c3ccc4nc(N5CCCCC5)sc4c3)CC2)cc1	-5.1%
COC(=O)CCc1sc(Nc2ccc(OC)cc2)nc1-c1ccc(OC)cc1	-12.6%
Cc1ccc(-c2cn(-c3ccc(Cl)cc3)c(S(=O)(=O)CC(=O)Nc3ccccc3)n2)cc1	-24.4%
CCc1ccc(-n2nc(CO)c(C(=O)NCC(c3ccccc3)c3ccccc3)n2)cc1	-1.3%
O=C(N/N=C/c1cccc(Oc2ccccc2)c1)c1ccccc1F	-3.5%
COc1ccc(Cn2ccc3nc(C)c(C(=O)NCc4ccc(OC)cc4OC)cc3c2=O)cc1	-0.5%
CCOc1ccccc1NC(=O)CSc1nccn1Cc1ccc(F)cc1	-8.6%
CCOC(=O)c1ccccc1NC(=O)CSc1nc(=O)[nH]c2c1CCC2	-0.8%
COc1ccc(-c2csc3ncnc(Nc4cccc(OC)c4)c23)cc1	24.5%
COC(=O)C1=C(C)N(Cc2ccccc2)C(=NCC(C)C)N[C@H]1c1ccc(Br)cc1	20.4%
O=C(Cn1c(=O)nc(-c2ccccc2)c2cc(Cl)ccc21)NCCCc1ccccc1	0.2%

Additional compounds.
SMILES	miR-21 FLuc
O=C(CCCCn1c(=O)[nH]c2ccsc2c1=O)N1CCN(c2cccc(C(F)(F)F)c2)CC1	?
COc1ccc(C(=O)Nc2noc3ccccc23)cc1	?
Cn1c(=O)c2c(SCC(=O)Nc3ccccc3C(F)(F)F)nc(C3CCCC3)nc2n(C)c1=O	0.6%
CCc1cc2c(cc3c(=O)n(CC(=O)N4CCN(c5cc(Cl)ccc5C)CC4)ncn32)s1	0.2%
COc1ccccc1-c1noc(CSc2nnc(-c3ccccc3)n2-c2ccc(C)c(C)c2)n1	-1.9%
CCOC(=O)N1CCC(NC(=O)c2ccc3c(c2)N(Cc2cccc(C)c2)C(=O)c2ccccc2S3(=O)=O)CC1	25.8%
Cc1cc(C)c(S(=O)(=O)NCCc2sc(-c3cccnc3)nc2C)c(C)c1	-5.0%
COc1ccccc1CNC(=O)NCc1noc2ccc(C)cc12	-1.6%
Cc1ccc(NC(=O)C2CCN(c3nnc(C)c4c(C)n(-c5ccccc5)nc34)CC2)cc1Cl	-1.7%
CC(C)(C)OC(=O)N1CCC(c2c(C(=O)N3CCN(c4ccccc4)CC3)cnn2-c2ccccc2)CC1	-3.5%
COc1ccc(-c2nc3c(c(SCC(=O)N4CCCCC4)n2)Cc2c(CO)cnc(C)c2O3)cc1	-3.1%
Cc1ccc(-c2noc(CN(C3CCCCC3)S(=O)(=O)c3ccc(F)cc3)n2)cc1	-0.9%
CCc1ccc(NC(=O)C(=O)NCCc2csc(-c3cccc(F)c3)n2)cc1	-4.0%
COc1ccc(C(C)=O)cc1CSc1nc(Nc2ccc(F)c(F)c2)c2ccccc2n1	-4.3%
CCC(Sc1nc2nccnc2c(=O)n1Cc1ccc(Cl)cc1)C(=O)NC1CCCCC1 (stereo not given)	-0.8%
CCN1CCN(Cc2nc3cc(NC(=O)c4ccccc4[N+](=O)[O-])ccc3n2CC)CC1	-5.7%
CC(=O)Nc1ccc(NC(=O)c2cc3sccc3n2Cc2ccc(Cl)cc2)cc1	-3.7%
CCN(CC)C(=O)Cn1c(=O)n(CCCCCC(=O)NCc2ccc3c(c2)OCO3)c(=O)c2sccc21	-4.4%
COc1ccc(Nc2ncnc3c2c(-c2ccccc2)cn3-c2ccc(C)c(Cl)c2)cc1OC	-5.3%
Cc1ccc2oc3c(c(=O)c2c1)C(c1ccc(O)cc1)N(Cc1ccc2c(c1)OCO2)C3=O (stereo not given)	0.7%
COc1ccc(NC(=O)CSc2nc(-c3cccs3)cc(C(F)(F)F)n2)cc1Cl	24.3%
CCOc1ccc(N(Cc2ccccc2)C(=O)c2nc(SCC)ncc2Cl)cc1	?
COc1ccc(C(=O)NCC(c2cccnc2)N2CCN(c3ccccc3)CC2)cc1 (stereo not given)	-3.7%
Cc1ccc(Cl)cc1NC(=O)C(Cc1ccccc1)NS(=O)(=O)c1cccc2nsnc12 (stereo not given)	-0.7%
Cc1cc(C)c2c(CC(=O)Nc3ccc(F)cc3)coc2c1	1.4%
Brc1cccc(-c2nnc(CN3CCN(c4ccccn4)CC3)o2)c1	0.9%
O=S(=O)(Nc1cccc(-c2ccc(N3CCCC3)nn2)c1)c1ccc(F)c(C(F)(F)F)c1	-5.7%
Cc1cc(NC(=O)C(C)C)ncc1NC(=O)c1ccco1	-23.0%
CC1CCCCN1C(=O)Cn1ncc2c3ccccc3n(Cc3ccccc3F)c2c1=O (stereo not given)	18.6%
CCc1ccccc1NC(=O)C(CC)Sc1ncnc2c1sc1ccccc12 (stereo not given)	-1.1%

Nothing new here: an excerpt of the list.
SMILES	miR-21 FLuc
Cc1cc(C)c2c(CC(=O)Nc3ccc(F)cc3)coc2c1	1.4%
Brc1cccc(-c2nnc(CN3CCN(c4ccccn4)CC3)o2)c1	0.9%
O=S(=O)(Nc1cccc(-c2ccc(N3CCCC3)nn2)c1)c1ccc(F)c(C(F)(F)F)c1	-5.7%
Cc1cc(NC(=O)C(C)C)ncc1NC(=O)c1ccco1	-23.0%
CC1CCCCN1C(=O)Cn1ncc2c3ccccc3n(Cc3ccccc3F)c2c1=O (stereo not given)	18.6%
CCc1ccccc1NC(=O)C(CC)Sc1ncnc2c1sc1ccccc12 (stereo not given)	-1.1%

Following part
SMILES	miR-21 FLuc
COc1ccc(OC)c(NC(=O)CSc2nc3ccccc3c(=O)n2CCC(=O)NC2CCCCC2)c1	-4.1%
Cc1ccc(OCC(=O)OCc2cc(=O)n3c(C)csc3n2)cc1	-1.1%
CCOc1ccc(CC(=O)NCCc2sc3nc(-c4ccc(OC)cc4)nn3c2C)cc1	18.4%
Cc1ccc(NC(=O)Cn2c(=O)oc3cc(S(=O)(=O)NCc4ccccc4)ccc32)cc1	-3.4%
COc1ccc(-c2cc(C(=O)NCCc3ccccc3)c3c(-c4ccccc4)[nH]nc3n2)cc1	-4.0%
Cc1ccc(Cl)cc1N1CCN(C(=O)c2cc3c(=O)oc4ccccc4c3s2)CC1	-0.3%
Cc1ccc(C(C(=O)NC2CCCCC2)N(C)Cc2ccccc2)cc1 (stereo not given)	3.7%
COc1ccc(OC)c(CC2C(=O)Nc3ccc(Br)cc32)c1 (stereo not given)	?
CCN(C(=O)Cn1c(=O)n(CCCS(=O)(=O)C2CCCCC2)c(=O)c2ccccc21)c1cccc(C)c1	-1.3%
Cc1c(-c2ccccc2)nc2c(Cl)cccc2c1C(=O)OCC(=O)c1ccc(F)cc1	3.2%
Cc1ccc(CCNC(=O)CCCn2c(=O)c3ccccc3n(CC(=O)Nc3cc(Cl)ccc3C)c2=O)cc1	-1.0%
CCc1c(C)sc(NC(=O)c2cc(-c3ccc(OC)cc3)on2)c1C#N	3.4%
O=c1[nH]c2ccc(NCc3ccc(-c4ccc(Cl)cc4)o3)cc2[nH]1	3.7%
CCOC(=O)c1cc2c(=O)n3ccccc3nc2n(Cc2ccco2)c1=NC(=O)c1ccc(OCC)cc1	2.5%
COc1cc(C(=O)n2nc(C)c(Sc3ccc(Cl)cc3)c2C)cc(OC)c1OC	-8.8%
COC(=O)c1ccccc1N(C)S(=O)(=O)c1cc2c3c(c1)CC(=O)N3CCC2	-4.5%
Cc1ccc(CNC(=O)CN2C(=O)CSc3c2c(C)nn3-c2ccccc2)cc1	-2.5%
CCc1cccc(NC(=O)c2cc3c(=O)n(Cc4ccccc4)ccc3nc2C)c1	20.9%
COc1cccc(Cc2nc3ccccc3nc2SCC(=O)Nc2cccc(C)c2)c1	-8.9%

Laid out differently: entries from further up.
Cc1ccc(CNC(=O)CN2C(=O)CSc3c2c(C)nn3-c2ccccc2)cc1
  miR-21 FLuc: -2.5%
CCc1cccc(NC(=O)c2cc3c(=O)n(Cc4ccccc4)ccc3nc2C)c1
  miR-21 FLuc: 20.9%
